Assay outcomes: PubChem, National Center for Advancing Translational Sciences (NCATS)
Menin-MLL FL inh: qHTS Assay for Inhibitors Targeting the Menin-MLL Interaction in MLL Related Leukemias: Competition With Fluorescein Labeled MLL-derived Peptide; Fluorescence polarization, fluorescein-MLL peptide displacement from menin; FP activity change, % at 61.4 µM; 290,000 tested, under 10 active; AID 1766, 2009; inconclusive = falling polarisation curve, or a change in total fluorescence; inactive = total fluorescence flat and polarisation flat or rising; no compound was filed as active; the % refers to the polarisation; negative = inhibition;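 note: % of control where 0% means no effect; inhibitors lower the polarisation; unlabelled MLL peptide was the positive control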
PINK1 modulator: A Quantitative High throughput Screen to Identify Chemical Modulators of PINK1 Expression | AID 624263, 2012 | Potency, µM (titrated, usually from 76.6 µM), inactives show at the top dose activation (PINK1 increase), actives largely listed as activators | PINK1 immunofluorescence, high-content cytometry, 24 h | 0.2% of 410,000 active; active = well fitted activation curve with a large enough effect; inconclusive = small, poorly fitted or top-dose-only effect; inactive = flat fitted curve, though single readings scatter; cell line not stated here;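 note: potency is the fitted concentration of half-maximal effect; % of control where 0% means no effect; nearly all actives have a fitted effect of over 65% in size; a mitochondrial uncoupler was the plate control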
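Fluorescence from anti-PINK1 antibody, together with nuclear and cell stains, was scanned on a laser-scanning cytometer. Before staining, stable-line cells were incubated 24 hours with compounds at 5 concentrations; primary antibody 12 h at 10 degrees C.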
TRPML1 agonist: qHTS for Agonists of the Human Mucolipin Transient Receptor Potential 1 (TRPML1); activation, % (test concentration not listed); Mucolipin-1 (Homo sapiens), Q9GZU1; TRPML1-expressing cells, Ca2+ dye fluorescence, FDSS; host cell line not named in the record; reference of the full effect not given here; 0.12% of 410,000 active; in the data active = activation above about 50%; inconclusive = about 30% to 50%; inactive = below about 30%; note: 0% is about no effect; the text of the record puts the active cut at 80%
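Agonist activity was taken from a 110 s kinetic Ca2+ dye read on the FDSS after pinning compounds onto TRPML1-DL cells. The cells were seeded at 1,500/well with Tet inducer, incubated about 16 h, then dye-loaded at room temperature.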
Sfp PPTase inh: qHTS Assay for Inhibitors of Bacillus subtilis Sfp phosphopantetheinyl transferase (PPTase) | Biochemical Sfp PPTase activity, qHTS | Potency, µM, for inactives: max response, negative = inhibition, hits mostly inhibitors | 3.5% of 310,000 active; active = well fitted inhibition curve with a large enough effect; inconclusive = small, poorly fitted or top-dose-only effect, or another doubt; inactive = no such curve, though single readings can be large or run the other way;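 note: the enzyme is Sfp with the accession as filed and its product quenches rhodamine fluorescence; potency is the fitted concentration of half-maximal effect; 0% = enzyme reaction without inhibitor and -100% = no enzyme wells; top concentration of the series not given in the record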
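Reaction rates are the 30-min fluorescence difference (ex 525, em 598 nm) in wells containing 15 nM Sfp, 5 uM rhodamine-CoA and 12.5 uM BHQ-2-YbbR at pH 7.6 with 10 mM MgCl2.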
TRPV1 PAM: HTS Assay for Compounds that Act as Potentiators of the Vanilloid Receptor 1; Transient receptor potential cation channel subfamily V member 1 (Homo sapiens), Q8NER1; TRPV1-expressing cells, Fluo-8 calcium influx, capsaicin EC20 potentiation; host cell line not named in the record; control for the full effect not named in the record; potentiation, % at 8.33 µM; 0.02% of 320,000 active; AID 540277, 2011; active means potentiation above 80%; inconclusive means 30% to 80%; inactive means below 30%; note: 0% is about no effect
Target sequence (Q8NER1 whole entry, looked up): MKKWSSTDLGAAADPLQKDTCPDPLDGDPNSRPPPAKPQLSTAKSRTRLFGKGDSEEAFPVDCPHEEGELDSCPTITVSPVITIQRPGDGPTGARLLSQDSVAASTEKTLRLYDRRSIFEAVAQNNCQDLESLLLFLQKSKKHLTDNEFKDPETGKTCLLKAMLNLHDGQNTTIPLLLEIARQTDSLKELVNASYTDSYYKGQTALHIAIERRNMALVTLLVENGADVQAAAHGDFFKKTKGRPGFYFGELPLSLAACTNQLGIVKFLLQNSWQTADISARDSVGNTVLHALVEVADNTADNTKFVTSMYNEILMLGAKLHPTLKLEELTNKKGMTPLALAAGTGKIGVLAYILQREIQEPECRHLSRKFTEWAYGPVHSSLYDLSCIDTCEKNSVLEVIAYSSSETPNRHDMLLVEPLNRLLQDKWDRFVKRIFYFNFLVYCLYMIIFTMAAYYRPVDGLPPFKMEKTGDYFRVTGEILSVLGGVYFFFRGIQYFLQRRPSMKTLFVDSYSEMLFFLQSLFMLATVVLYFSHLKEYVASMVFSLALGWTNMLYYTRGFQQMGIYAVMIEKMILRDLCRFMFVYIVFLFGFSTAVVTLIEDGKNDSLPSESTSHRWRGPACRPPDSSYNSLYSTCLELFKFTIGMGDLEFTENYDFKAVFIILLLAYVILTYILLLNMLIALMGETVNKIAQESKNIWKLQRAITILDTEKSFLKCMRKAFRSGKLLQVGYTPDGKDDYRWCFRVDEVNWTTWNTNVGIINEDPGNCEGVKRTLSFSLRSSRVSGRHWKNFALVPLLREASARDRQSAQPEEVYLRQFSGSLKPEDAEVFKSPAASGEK
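Cells expressing TRPV1 were dye-loaded with Fluo-8 and read kinetically: 10 s baseline, 3 min after compound (agonist portion), then 2 min after EC20 capsaicin (allosteric enhancer portion). Calcium-bound dye fluorescence at 480/520 nm.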
TRPML1 inh: qHTS for Inhibitors of the Human Mucolipin Transient Receptor Potential 1 (TRPML1). Mucolipin-1 (Homo sapiens), Q9GZU1. TRPML1-inducible cells, Ca2+ dye fluorescence, FDSS; stronger effect = lower value; inhibition of EC80 agonist-evoked calcium signal. activity change, negative = inhibition, % (test concentration not listed). 0.02% of 390,000 active. AID 624415, 2012; in the data active means activity change below about -50%; inconclusive means about -30% to -50%; inactive means above about -30%;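 note: stimulus is agonist 54-4 at its EC80 concentration; % is set by controls: 0 for no effect and ±100 for the full control effect; compound concentration not given in the record; the text of the record puts the active cut at -80%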
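TRPML1-DL cells, Tet-induced overnight (~16 h, 37 °C) at 1,500 cells/well, were loaded with Ca8 no-wash dye plus quencher for 45-90 min at room temperature. Compounds were pinned during FDSS kinetic reading; agonist 54-4 at EC80 (4 uM final) then added.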
ClpP mod: qHTS Assay for Activators of ClpP. ATP-dependent Clp protease proteolytic subunit (Bacillus subtilis (strain 168)), P80244. 1.9% of 340,000 active. Potency, µM (series often up to 57.5 µM), for inactives: at the top dose activity change, negative = active. purified B. subtilis ClpP, FRET peptide cleavage, 20 min; active = well fitted falling curve with a large enough effect; inconclusive = small, poorly fitted or top-dose-only effect; inactive = no such curve, though single readings can be large or run the other way; note: potency is the fitted concentration of half-maximal effect; the source files actives as falling curves though it sought activators and does not explain the sign; nearly all actives have a fitted effect of over 65% in size; many hits overshoot -100%
Target sequence (P80244 whole entry, looked up): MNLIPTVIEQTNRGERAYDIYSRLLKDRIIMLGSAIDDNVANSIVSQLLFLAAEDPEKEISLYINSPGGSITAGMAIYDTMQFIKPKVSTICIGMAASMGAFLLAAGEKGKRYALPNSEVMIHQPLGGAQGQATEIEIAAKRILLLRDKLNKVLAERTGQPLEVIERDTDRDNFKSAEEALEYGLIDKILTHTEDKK
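ClpP 10 microg/mL final, pH 8 Tris/KCl buffer with BSA, glycerol, Tween-20; compound pinned in; FRET-FV substrate; RT 20 min; Ex320/Em430; ΔFRET vs ADEP 5.8 microM, DMSO, no enzyme.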
The depositor's hits bear a star; & = joins results of further samples; [ ] = another dose, or the depositor's remark.

A first look, two compounds:
Screening CC1(c2ccccc2Cl)NC(=O)N(CC(=O)N2CCc3ccccc32)C1=O (stereo not drawn) returned PINK1 modulator 1.8%, TRPML1 agonist 0.8 and TRPML1 inh -10.
For NC(=S)N/N=C/c1ccc2cccc(OCc3ccccc3)c2n1 the results were Menin-MLL FL inh -13, PINK1 modulator 1.2%, TRPML1 agonist 1.8, Sfp PPTase inh -11%, TRPV1 PAM 5 and TRPML1 inh 12.

The listing (from the top)
Screening CC1(c2ccccc2Cl)NC(=O)N(CC(=O)N2CCc3ccccc32)C1=O (stereo not drawn) returned PINK1 modulator 1.8%, TRPML1 agonist 0.8 and TRPML1 inh -10.
For NC(=S)N/N=C/c1ccc2cccc(OCc3ccccc3)c2n1 the results were Menin-MLL FL inh -13, PINK1 modulator 1.2%, TRPML1 agonist 1.8, Sfp PPTase inh -11%, TRPV1 PAM 5 and TRPML1 inh 12.
C=CCn1c(=O)c2ccccc2n2c(Sc3nnnn3-c3ccccc3)nnc12 was read as Menin-MLL FL inh 1.2, PINK1 modulator -2.1%, TRPML1 agonist 1.3, Sfp PPTase inh 25%, TRPV1 PAM -3, TRPML1 inh -1 and ClpP mod -27%.
For Cn1c(SCc2ccc(F)cc2)nnc1-c1cnccn1 the results were Menin-MLL FL inh 1.0, PINK1 modulator -1.1%, TRPML1 agonist 0.7, Sfp PPTase inh 14%, TRPV1 PAM 2, TRPML1 inh 1 and ClpP mod -1.6%.
Screening Cn1c2ccccc2c2cc(/C=N/NC(=O)c3ccc(N)cc3)ccc21 returned PINK1 modulator -0.3%, TRPML1 agonist 0.5, Sfp PPTase inh 16%, TRPV1 PAM 4, TRPML1 inh -6 and ClpP mod 3.6%.
`O=C1CN(C(=O)CSc2nc3cc(Cl)ccc3c(=O)n2Cc2ccccc2)c2ccccc2N1` gave Menin-MLL FL inh 4.3, PINK1 modulator 6.8%, TRPML1 agonist 1.8, Sfp PPTase inh 8%, TRPV1 PAM -5 and TRPML1 inh 22.
For O=C(CSc1ccccn1)N1CCc2ccccc21 the results were Menin-MLL FL inh 3.9, PINK1 modulator 0.7%, TRPML1 agonist 1.1, Sfp PPTase inh -22%, TRPV1 PAM -3 and TRPML1 inh 9.
`CCOC(=O)c1ccc(NC(=O)C2Cc3ccccc3CN2S(=O)(=O)c2ccc(Cl)cc2)cc1` (stereo not drawn) gave PINK1 modulator 0.5%, TRPML1 agonist 3.3, TRPML1 inh 12 and ClpP mod -2.2%.
Screening O=C(/C(=C/c1ccccc1)c1ccccc1)N1CCCCC1 returned Menin-MLL FL inh 0.2, PINK1 modulator 6.6%, TRPML1 agonist 1.6, Sfp PPTase inh -9%, TRPV1 PAM -18, TRPML1 inh 18 and ClpP mod -0.8%.
C=CCn1c(SCC(=O)NC2(C)CCS(=O)(=O)C2)nc2ccccc21 (stereo not drawn) was read as PINK1 modulator -0.2%, TRPML1 agonist -0.6, TRPML1 inh -9 and ClpP mod -0.9%.
For CCN(C(=O)C(=O)c1c[nH]c2ccccc12)c1ccccc1 the results were Menin-MLL FL inh 0.9, PINK1 modulator 6.4%, TRPML1 agonist 1.1, Sfp PPTase inh 13%, TRPV1 PAM -9, TRPML1 inh -26 and ClpP mod -2.7%.
`Cc1ccc(C)c(NC(=O)Cn2nc([N+](=O)[O-])c(Br)c2C)c1` gave Menin-MLL FL inh 2.8, PINK1 modulator inconclusive, TRPML1 agonist 1.1, Sfp PPTase inh -6%, TRPV1 PAM -1, TRPML1 inh 36 and ClpP mod -20%.
`CCOc1ccc2nc(NC(=O)CN3CCC(n4nnc5cc(C(F)(F)F)ccc54)CC3)sc2c1` gave Menin-MLL FL inh -1.1, PINK1 modulator 3.5%, TRPML1 agonist -0.6, Sfp PPTase inh -6%, TRPV1 PAM -1, TRPML1 inh -1 and ClpP mod -5.7%.
Screening CCCn1c(SCC(=O)Nc2ccc(C)c(S(=O)(=O)N3CCOCC3)c2)n[nH]c1=O returned Menin-MLL FL inh -1.7, PINK1 modulator -1.1%, TRPML1 agonist -0.9, Sfp PPTase inh 12%, TRPV1 PAM -12, TRPML1 inh -30 and ClpP mod -1.7%.
`Cc1cc(Nc2ccc(F)cc2C)n2nc(C)nc2n1` gave Menin-MLL FL inh -0.6, PINK1 modulator -2.2%, TRPML1 agonist 1.2, Sfp PPTase inh -2%, TRPV1 PAM -5, TRPML1 inh -9 and ClpP mod 0.0%.
`COc1ccccc1N1CCN(C/C=C/c2ccc(N(C)C)cc2)CC1` gave Menin-MLL FL inh 7.8, Sfp PPTase inh inconclusive and TRPV1 PAM -12.
`COc1ccccc1NS(=O)(=O)c1ccc(OC)c(OC)c1` gave Menin-MLL FL inh 0.1, PINK1 modulator -0.3%, TRPML1 agonist -0.3, Sfp PPTase inh 16%, TRPV1 PAM -3, TRPML1 inh 5 and ClpP mod -2.5%.
`O=C(CSc1nc(-c2ccccc2)nc2ccccc12)Nc1cccc(C(=O)O)c1` gave Menin-MLL FL inh -1.5, PINK1 modulator -0.9%, TRPML1 agonist 0.1, Sfp PPTase inh 6%, TRPV1 PAM 1 and TRPML1 inh -3.
CCOc1ccccc1N1CCN(C(=O)CN2C(=O)NC3(CCCC3)C2=O)CC1 was read as PINK1 modulator -1.1%, TRPML1 agonist 0.3, TRPV1 PAM 17, TRPML1 inh 6 and ClpP mod 1.7%.
For CC(=O)C1=C(S(=O)(=O)c2ccc(C)cc2)CS(=O)(=O)C1 the results were Menin-MLL FL inh 1.5, PINK1 modulator 11%, TRPML1 agonist -0.4, Sfp PPTase inh 5.6µM*, TRPV1 PAM 9 and TRPML1 inh -7.
`Cc1cccc(C(=O)N2CCCC(Nc3ccc(F)c(F)c3)C2)n1` (stereo not drawn) gave PINK1 modulator -2.1%, TRPML1 agonist -0.2, Sfp PPTase inh 8%, TRPV1 PAM -22, TRPML1 inh -2 and ClpP mod -1.0%.
COc1cccc(C(=O)Nc2cc(C)c3c(=O)oc4ccccc4c3n2)c1 was read as Menin-MLL FL inh 3.8, PINK1 modulator 0.3%, TRPML1 agonist -0.6, Sfp PPTase inh 7%, TRPV1 PAM -4, TRPML1 inh -20 and ClpP mod -14%.
`COc1ccccc1NC(=S)N(Cc1cccnc1)Cc1ccccc1Cl` gave Menin-MLL FL inh 3.3, PINK1 modulator 2.1%, TRPML1 agonist 1.7, Sfp PPTase inh 17%, TRPV1 PAM 4 and TRPML1 inh 35.
CC(NO)C(C)(C)NO (stereo not drawn) was read as Menin-MLL FL inh -1.0, PINK1 modulator 2.3%, TRPML1 agonist -0.5, Sfp PPTase inh -28%, TRPV1 PAM 3, TRPML1 inh 0 and ClpP mod -1.1%.
Cn1c(-c2ccc(F)cc2)cnc1NCc1ccc(C#N)cc1 was read as Menin-MLL FL inh 4.6, PINK1 modulator -3.7%, TRPML1 agonist -0.3, Sfp PPTase inh inconclusive, TRPV1 PAM -1, TRPML1 inh -1 and ClpP mod -7.4%.
`COC(=O)CN1C(=O)C(C)(C)c2cc(S(=O)(=O)Nc3ccc(C(C)C)cc3)ccc21` gave PINK1 modulator 1.8%, TRPML1 agonist 2.9, TRPML1 inh 14 and ClpP mod 1.3%.
For CC1(Oc2ccc3ccccc3c2)CCN(Cc2cccn2-c2nccs2)C1 (stereo not drawn) the results were PINK1 modulator inconclusive, TRPML1 agonist -0.3 and ClpP mod -3.6%.
For CSc1ccc(CCNC(=O)c2sc3ncccc3c2-n2cccc2)cc1 the results were PINK1 modulator 0.4%, TRPML1 agonist 2.0, TRPML1 inh 22 and ClpP mod -11%.
For COc1ccc(C(C(=O)NC2CCCCC2)N(C(=O)CCCC(=O)Nc2ccccn2)c2ccc3c(c2)OCCO3)cc1 (stereo not drawn) the results were Menin-MLL FL inh 2.0, PINK1 modulator 2.6%[38.3 µM], TRPML1 agonist 0.0, Sfp PPTase inh 14%, TRPML1 inh -15 and ClpP mod 0.7%.
Screening Oc1ccc(Br)cc1-c1cc(-c2ccccc2Cl)[nH]n1 returned Menin-MLL FL inh 4.2, PINK1 modulator 7.8%, Sfp PPTase inh 6%, TRPV1 PAM 20 and ClpP mod -2.6%.
`Cc1ccc(CNC(=O)Cn2cccc2C(=O)c2ccccc2C)cc1` gave Menin-MLL FL inh -3.5, PINK1 modulator 4.2%&-0.1%, TRPML1 agonist 0.8&0.6, Sfp PPTase inh 8%, TRPV1 PAM -34, TRPML1 inh -17&32 and ClpP mod 0.9%&-1.9%.
For C/C=C/C=C/C(=O)N1CC2(CC(c3cccc(NC(=O)CCCCC)c3)=NO2)C[C@H]1C(N)=O (stereo partly drawn) the results were Menin-MLL FL inh -0.2, PINK1 modulator 1.5%, TRPML1 agonist -0.8, Sfp PPTase inh 22µM*, TRPV1 PAM inconclusive, TRPML1 inh 0 and ClpP mod -1.8%.
O=S(=O)(Nc1nccs1)c1ccc(Cl)cc1 was read as Menin-MLL FL inh 3.2, PINK1 modulator 11%[38.3 µM], TRPML1 agonist -0.2, Sfp PPTase inh 19%, TRPV1 PAM 8, TRPML1 inh 8 and ClpP mod -0.6%.
`COc1ccc2c(Cl)c(C(=O)NC3CCS(=O)(=O)C3)sc2c1` (stereo not drawn) gave Menin-MLL FL inh 3.2, PINK1 modulator 0.4%, TRPML1 agonist -0.8, Sfp PPTase inh 4%, TRPV1 PAM -8, TRPML1 inh 12 and ClpP mod -11%.
For N/C(=N\N=C\c1cccc(O)c1)c1nonc1N the results were Menin-MLL FL inh -7.6, PINK1 modulator -1.5%, TRPML1 agonist -0.4, Sfp PPTase inh 21%, TRPV1 PAM -2 and TRPML1 inh -2.
Cc1ccc(O)c(NC(=O)c2ccc3c(c2)C(=O)N(CC(C)C)C3=O)c1 was read as Menin-MLL FL inh -7.6, PINK1 modulator 3.4%, TRPML1 agonist -0.7, Sfp PPTase inh 14%, TRPV1 PAM -15 and TRPML1 inh 11.

Hits appear at their usual frequency, and some 4.4% of all compounds hit somewhere here.
